# Menin-MLL FL inh – inhibitors of human menin-MLL interaction, wild-type MLL peptide. Fluorescence polarization, fluorescein-MLL peptide displacement from menin. FP activity change, % at 61.4 µM. 290,000 tested, under 10 active; inconclusive = falling polarisation curve, or a change in total fluorescence; inactive = total fluorescence flat and polarisation flat or rising; no compound was filed as active; the % refers to the polarisation; negative = inhibition;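 also: % of control where 0% means no effect; inhibitors lower the polarisation; unlabelled MLL peptide was the positive control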
# TRPML1 inh – inhibitors of human TRPML1 channel; Q9GZU1; TRPML1-inducible cells, Ca2+ dye fluorescence, FDSS; stronger effect = lower value; inhibition of EC80 agonist-evoked calcium signal; activity change, negative = inhibition, % (no concentration beside the values); hit rate 0.02% among 390,000; AID 624415; in the data active means activity change below about -50%; inconclusive means about -30% to -50%; inactive means above about -30%;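 also: stimulus is agonist 54-4 at its EC80 concentration; % is scaled to controls: 0 for no effect and ±100 for the full control effect; compound concentration not given in the record; the text of the record puts the active cut at -80%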
#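 TRPML1-DL cells, Tet-induced overnight (~16 h, 37 °C) at 1,500 cells/well, were loaded with Ca8 no-wash dye plus quencher for 45-90 min at room temperature. Compounds were pinned during FDSS kinetic reading; agonist 54-4 at EC80 (4 uM final) then added.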
# Sfp inh – blocks B. subtilis Sfp PPTase activity; Potency, µM, for inactives: max response, negative = inhibition, actives largely listed as inhibitors; Biochemical Sfp PPTase activity, qHTS; hit rate 3.5% among 310,000; Q9F4F7; AID 1490; active = well fitted inhibition curve with a large enough effect; inconclusive = small, poorly fitted or top-dose-only effect, or another doubt; inactive = no such curve, though single readings can be large or run the other way;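 also: the enzyme is Sfp with the accession as filed and its product quenches rhodamine fluorescence; potency is read from the fitted curve at half-maximal effect; 0% = enzyme reaction without inhibitor and -100% = no enzyme wells; top concentration of the series not given in the record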
#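 Sfp 15 nM + cpd, 15 min RT; start w/ rhodamine-CoA 5 uM, BHQ-2-YbbR 12.5 uM (final); 50 mM Hepes pH 7.6, 10 mM MgCl2, 0.01% NP-40, 0.01% BSA; read 525/598 nm at 0 and 30 min.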
# ClpP mod – qHTS Assay for Activators of ClpP. ATP-dependent Clp protease proteolytic subunit (Bacillus subtilis (strain 168)), P80244. purified B. subtilis ClpP, FRET peptide cleavage, 20 min. Potency, µM (doses to about 57.5 µM), inactives show at the top dose activity change, negative = active. hit rate 1.9% among 340,000; active = well fitted falling curve with a large enough effect; inconclusive = small, poorly fitted or top-dose-only effect; inactive = no such curve, though single readings can be large or run the other way; also: potency is read from the fitted curve at half-maximal effect; the source files actives as falling curves though it sought activators and does not explain the sign; nearly all actives have a fitted effect of over 65% in size; many hits overshoot -100%
# Target sequence (P80244 whole entry, looked up): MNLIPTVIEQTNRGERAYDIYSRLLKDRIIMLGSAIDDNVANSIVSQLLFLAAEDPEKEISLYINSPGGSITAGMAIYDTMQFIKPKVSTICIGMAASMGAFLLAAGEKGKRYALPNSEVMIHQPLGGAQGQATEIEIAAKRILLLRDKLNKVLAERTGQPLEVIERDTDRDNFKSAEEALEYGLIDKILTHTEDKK
#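 Purified B. subtilis ClpP, 10 microg/mL final in Tris/HCl pH8 with KCl, BSA, glycerol and Tween-20, cleaved an Abz/nitrotyrosine-quenched decapeptide. Fluorescence (ex 320, em 430) was read at 0 and 20 min at room temperature. Delta was normalized to 5.8 microM ADEP and DMSO/no-enzyme controls.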
# PINK1 modulator – modulators of PINK1 expression; PINK1 immunofluorescence, high-content cytometry, 24 h; hit rate 0.2% among 410,000; AID 624263; Potency, µM (series often up to 76.6 µM), inactives show at the highest dose activation (PINK1 increase), usual class: activators; active = well fitted activation curve with a large enough effect; inconclusive = small, poorly fitted or top-dose-only effect; inactive = flat fitted curve, though single readings scatter; cell line not stated here;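 also: potency is read from the fitted curve at half-maximal effect; % of control where 0% means no effect; nearly all actives have a fitted effect of over 65% in size; a mitochondrial uncoupler was the plate control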
#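 A stable cell line was treated with compounds at 5 concentrations for 24 hours, with CCCP as control. PINK1 levels and mitochondrial localization were measured by immunofluorescence with mitochondrial, cell and nuclear markers after fixation, read by laser-scanning cytometry.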
# TRPML1 ag – activates the human TRPML1 channel; AID 624414; activation, % (test concentration not listed); hit rate 0.12% among 410,000; TRPML1-expressing cells, Ca2+ dye fluorescence, FDSS; host cell line not named in the record; reference of the full effect not given here; in the data active = activation above about 50%; inconclusive = about 30% to 50%; inactive = below about 30%; also: 0% is about no effect; the text of the record puts the active cut at 80%
#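 Cells: TRPML1-DL, 1X Tet inducer, ~16 h at 37 degrees C/5% CO2. Dye: ABD Ca8 no-wash + quencher, 45-90 min RT. Read: 10 s baseline, compound add, 110 s agonist phase; 54-4 EC80 (4uM final), 110 s antagonist phase.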
# TRPV1 PAM – enhances activation of the human vanilloid receptor TRPV1 | Q8NER1 | potentiation, % at 8.33 µM | hit rate 0.02% among 320,000 | TRPV1-expressing cells, Fluo-8 calcium influx, capsaicin EC20 potentiation; host cell line not named in the record; control for the full effect not named in the record; active means potentiation above 80%; inconclusive means 30% to 80%; inactive means below 30%; also: 0% is about no effect
# Target sequence (Q8NER1 whole entry, looked up): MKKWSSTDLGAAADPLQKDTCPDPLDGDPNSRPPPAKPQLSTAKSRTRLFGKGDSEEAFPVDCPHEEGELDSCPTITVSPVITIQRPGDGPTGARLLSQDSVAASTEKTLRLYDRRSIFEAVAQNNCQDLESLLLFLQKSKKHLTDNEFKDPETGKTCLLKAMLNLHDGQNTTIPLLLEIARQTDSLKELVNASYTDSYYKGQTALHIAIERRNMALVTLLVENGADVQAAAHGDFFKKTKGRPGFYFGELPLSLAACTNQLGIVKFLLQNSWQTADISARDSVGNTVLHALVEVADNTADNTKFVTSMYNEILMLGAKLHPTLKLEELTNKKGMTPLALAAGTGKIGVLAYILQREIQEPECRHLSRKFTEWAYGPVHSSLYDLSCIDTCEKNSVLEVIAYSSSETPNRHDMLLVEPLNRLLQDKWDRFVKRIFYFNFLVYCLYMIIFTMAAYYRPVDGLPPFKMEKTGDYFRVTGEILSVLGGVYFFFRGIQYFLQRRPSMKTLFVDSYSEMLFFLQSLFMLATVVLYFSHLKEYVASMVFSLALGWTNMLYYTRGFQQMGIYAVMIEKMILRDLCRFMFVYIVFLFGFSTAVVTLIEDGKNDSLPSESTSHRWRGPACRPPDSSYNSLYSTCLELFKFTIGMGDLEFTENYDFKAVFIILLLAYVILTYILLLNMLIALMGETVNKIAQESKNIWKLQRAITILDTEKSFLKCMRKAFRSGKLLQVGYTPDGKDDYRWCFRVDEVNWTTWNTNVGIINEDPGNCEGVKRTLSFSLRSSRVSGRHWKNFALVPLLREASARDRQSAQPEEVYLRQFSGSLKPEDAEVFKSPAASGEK
#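 Fluo-8 calcium influx in TRPV1-expressing cells, kinetic read (ex 480/em 520 nm). Compound added and read 3 min for agonist activity, followed by capsaicin at EC20 final and 2 min further read for enhancement.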
# An asterisk follows results filed as active; ? = inconclusive; . = not tested or not shown; [ ] = remark or other dose.
# Values in the order: Menin-MLL FL inh	TRPML1 inh	ClpP mod	TRPV1 PAM	Sfp inh	PINK1 modulator	TRPML1 ag
CCn1c(SCC(=O)C(C)(C)C)nnc1-c1cccnc1
 : 4.5	-9	-2.0%	0	5%	3.8%[38.3 µM]	0.2
Fc1ccc(Nc2ccc3ccccc3n2)c(F)c1
 : -0.6	-5	-16%	2	?	4.1%	2.5
Cc1ccc(-c2cc3nc(C)cc(N4CCN(C(=O)c5ccoc5)CC4)n3n2)cc1
 : .	16	?	.	.	4.0%	0.6
NS(=O)(=O)c1ccc(CCNC(=O)CSc2ncnc3ccccc23)cc1
 : -2.3	-18	.	-3	2%	-0.8%	0.6
COc1cccc(NC(=O)c2ccc(CN3CCN(c4ccccc4)CC3)cc2)c1
 : 1.4	0	-3.1%	2	-3%	.	0.6
Cc1ccc2c(c1)C1CN(C)CCC1N2C(=O)c1cccc(S(=O)(=O)N(C)C)c1 (stereo not given)
 : 0.5	6	.	6	25%	0.4%	0.0
CCN(CC)CCn1c(-c2ccc(C)cc2)nc(=S)c2c1CC(C)(C)OC2
 : 7.9	-2	1.4%	9	10%	2.4%	-0.6
O=C(/C=C/c1ccc(N2CCCCC2)c([N+](=O)[O-])c1)c1ccc(O)cc1
 : -2.0	-6	.	14	-2%	-2.6%	0.0
CCCc1cc(=O)oc2cc(C)cc(OC(C)C(=O)NCC3CCC(C(=O)O)CC3)c12 (stereo not given)
 : 2.7	16	3.2%	-1	4%	0.4%	0.2
Cc1ccc(C(=O)OCC(=O)NCCNC(=O)COC(=O)c2ccc(C)o2)o1
 : .	7	-3.3%	-17	.	-1.0%	-0.4
CCOc1ccccc1C(=O)Nc1ccc(S(=O)(=O)N2CCN(C)CC2)cc1
 : -7.4	-3	-0.2%	2	11%	1.5%	0.5
CCN(CC)c1ccc(N)cc1S(=O)(=O)Nc1ccc(OC)cc1
 : 3.7	4	.	-14	-25%	1.0%	1.7
Cc1ccc(S(=O)(=O)NC(=O)C2(C)CCN2C(=O)c2ccccc2)nc1 (stereo not given)
 : .	15	-4.2%	.	.	-0.7%	0.4
COc1c(F)c(F)c(C(=O)O)c(Nc2ccc(C)cc2)c1F
 : -0.5	-7	0.1%	-8	6%	7.0%[38.3 µM]	2.0
O=C(Cn1cc(S(=O)(=O)N2CCCC2)c(S(=O)(=O)N2CCCC2)c1)NCc1ccco1
 : .	-9	-1.2%	-3	-1%	0.2%	-0.5
CC1=CC(=C2C=CC(=O)C=C2)C=C(C)N1C
 : 4.1	.	.	0	9%	.	.
O=C(O/N=C1/CCSc2ccccc21)c1ccc(F)cc1
 : 12	-5	-1.6%	-11	-10%	?	3.2
COc1cc(OC)cc(-n2nnc(-c3nc(-c4ccccc4Cl)no3)c2N)c1
 : .	-25	-4.4%	.	.	0.3%	0.3
Cc1ccc(S(=O)(=O)N2CCN(C(=S)NCc3ccc4c(c3)OCO4)CC2)cc1
 : 2.1	10	-0.2%	5	12%	1.3%	-0.4
COc1ccc(C)c(Cn2c(-c3nonc3N)nc3ccccc32)c1
 : -0.8	-3	7.2%	-28	?	11%	0.6
COc1ccc(CCNC(=O)CCc2ccc(S(=O)(=O)NC(C)C)cc2)cc1
 : 7.8	-20	0.8%	3	5%	-0.4%	-0.3
CCCCOc1cccc(C(=O)Nc2ccc(N3CCN(CC)CC3)cc2)c1
 : 1.1	20	1.1%	-21	1%	4.4%	0.4
CC(Sc1nnc(-c2cccnc2)n1N)C(=O)NCCC1=CCCCC1 (stereo not given)
 : .	11	-1.9%	5	.	3.6%	0.2
COc1cc2nc(CN3CCN(S(=O)(=O)c4c(F)cccc4F)CC3)[nH]c(=O)c2cc1OC
 : .	30	-0.6%	-9	.	3.7%	0.5
Cc1ccccc1NC(=O)CCNS(=O)(=O)c1ccc2c(c1)CCC(=O)N2
 : 0.8	-14	1.3%	15	17%	-1.8%	-0.5
O=c1[nH]c2ccccc2n1C1CCCCC1
 : 6.9	17	-0.3%	-12	8%	0.0%	0.3
CCCSc1nc2c(c(=O)[nH]c(=O)n2C)n1CC(O)COc1ccccc1 (stereo not given)
 : 3.9	-2	0.7%	3	-4%	-1.4%	-0.4
OCCNc1ncnc2c1ncn2[C@H]1CN(Cc2ccc(Cl)cc2)C[C@@H](CO)O1
 : .	.	-0.8%	.	.	0.2%	0.1
Cc1cc(N)nc(=O)n1C1CC(O)C(CO)O1 (stereo not given)
 : .	0	1.2%	.	.	-3.4%	-0.3
CS(=O)(=O)c1cccc(C(=O)Nc2nnc(C3=COCCO3)o2)c1
 : .	-16	10µM*	9	.	-1.6%	-0.2
O=C(C1=C[C@H](c2ccccc2)C[C@H](OCCCCO)O1)N1CCN(Cc2ccccc2)CC1
 : -4.8	-1	-0.1%	11	12%	0.5%	-0.8
O=C(NCCCn1ccnc1)c1cn(Cc2ccc(F)cc2)nn1
 : -0.7	-6	1.8%	0	17%	-0.7%	-0.5
O=C(CN(C(=O)CNC(=O)c1ccco1)c1ccc(F)cc1)NC1CCCCC1
 : -1.6	4	.	-12	15%	0.7%	0.0
CC1=Nc2ccccc2N=C(NC(=O)CSc2nnnn2-c2ccccc2)C1c1ccccc1 (stereo not given)
 : 3.1	34	-17%	23	-13%	-4.5%	1.4
Cc1ccc(S(=O)(=O)N2CCCN(C(=O)c3ccc(-n4nccc4C)cc3)CC2)cc1
 : .	3	.	-4	.	-1.7%	1.2
COc1ccc(NC(=O)CCCn2c(=O)c3cccn3c3cccnc32)cc1Cl
 : .	-6	?	.	.	1.1%	-0.8
Cc1nc2ccc(NC(=O)c3nn(CC(C)C)c(=O)c4ccccc34)cc2s1
 : 12	12	0.3%	-1	-12%	-3.4%	2.9
COc1ccc(N(C)C(=O)c2ccc(NC(=O)CCS(=O)(=O)c3cccs3)cc2)cc1
 : -1.7	3	-0.8%	1	4%	0.6%	-1.2
CCOCCn1ccc2c(OCC(=O)Nc3ccccc3F)cccc2c1=O
 : .	-12	-20%	-5	.	-0.5%	2.1
COCC#Cc1ccc2c(c1)O[C@@H](CN(C)C(=O)Nc1ccc(OC)cc1)[C@H](C)CN([C@H](C)CO)S2(=O)=O
 : .	-6	-0.6%	.	.	1.9%	-0.6
CN(CC(=O)Nc1cccc(F)c1)CC(=O)Nc1cccc(S(N)(=O)=O)c1
 : -0.7	.	0.0%	-2	14%	0.8%	.
CC(C)(C)NC(=O)C(c1ccco1)N(Cc1ccc(F)cc1)C(=O)c1snc(C(N)=O)c1N (stereo not given)
 : 0.8	7	-15%	13	11%	-2.1%[38.3 µM]	-0.2
CCN(C(=O)c1cn(C)c(=O)c2ccccc12)c1cccc(C)c1
 : .	2	-14%	.	.	3.0%	0.2
C=CCOc1c(Br)cc(/C=N/Nc2ccc(C(=O)O)cc2)cc1OCC
 : 1.4	28	-10%	-16	?	12%	2.3
Cc1cc(/C=C2\Cc3ccccc3C2=O)c(C)n1-c1ccccc1
 : ?	-9	-2.2%	-1	-20%	1.8%	2.5
CCOc1ccccc1NC(=O)CCc1c(C)nc2c3cccnc3nn2c1C
 : .	9	28µM*	.	.	-0.9%	-0.5
Cc1ccc(OCC(=O)Nc2c[nH]c(=O)[nH]c2=O)cc1C
 : -2.4	?	.	-4	4%	-1.6%	0.2
COc1cc(Cl)c(C)cc1NC(=O)c1ccccc1NC(=O)CN1CCOCC1
 : 0.2	-1	0.1%	-24	-16%	5.4%	-1.6
CC(C)[C@@H](CO)NC(=O)[C@H]1O[C@@H](n2cnc3c(N)ncnc32)[C@H](O)[C@@H]1O
 : .	-14	-1.0%	.	.	1.8%	0.6
CCC(=O)Nc1ccc(C(=O)c2ccccc2)cc1
 : 1.9	-2	-5.4%	-20	5%	0.1%	-1.2

# Next section
# Values in the order: Menin-MLL FL inh	TRPML1 inh	ClpP mod	TRPV1 PAM	Sfp inh	PINK1 modulator	TRPML1 ag
Nc1ccc2c(c1)COC2=O
 : 0.3	0	-0.6%	1	29%	0.0%	0.0
Cc1cccc(C)c1NC(=O)NN(C(=O)c1ccccc1)C(C)(C)C
 : -2.3	-12	-1.8%	-11	12%	0.0%	0.5
CC1=CC(=C2C(=O)c3ccccc3C2=O)C=C(C)N1Cc1ccco1
 : 5.6	5	-1.4%	0	45µM*	5.1%	-1.4
CCCCOc1ccc(C(=O)N(Cc2ccco2)Cc2ccco2)cc1
 : .	?	-1.8%	.	.	0.6%	3.7
C=CCNC(=O)/C(C#N)=C/c1cn(-c2ccccc2)nc1-c1cccs1
 : 1.9	12	50%	-13	-6%	?	2.6
Clc1ccc(C2=CC(c3ccco3)n3ncnc3N2)cc1 (stereo not given)
 : ?	1	32µM*	-20	?	1.1%	28
CSCCC(NC(=O)c1ccccc1Br)C(=O)NNC(=O)c1csc(N2CCOCC2)n1 (stereo not given)
 : .	-21	.	-6	.	1.9%	-0.3
CN(C)S(=O)(=O)c1ccc(Cl)c(C(=O)NNC(=O)c2ccc3c(c2)OCO3)c1
 : .	-7	0.4%	-4	.	-0.3%	-1.2
Cc1nn(-c2ccccc2Cl)c(Cl)c1/C=N/Nc1nc2ccccc2s1
 : 2.2	0	-3.9%	-5	10%	0.9%	-0.1
O=C(COc1ccccc1)NCC(c1ccco1)N1CCN(c2ccccc2F)CC1 (stereo not given)
 : .	3	1.8µM*	-5	.	2.1%	0.5
Cn1c(SCc2ccccc2F)nc2ccccc2c1=O
 : .	-10	-1.1%	.	.	9.4%	0.5
O=C(NCc1ccccc1)C(c1cccnc1)N(C(=O)c1ccccn1)c1ccccc1F (stereo not given)
 : -1.2	19	.	9	-5%	0.3%	-0.3
CCc1c(C(=O)N2CCOCC2)csc1C
 : 4.0	7	1.4%	12	27%	8.8%[38.3 µM]	-0.4
COc1ccc(Nc2nc3ccccc3n2C)cc1
 : 1.2	-11	-0.3%	15	16%	-1.5%	-0.6
CCCOc1ccc(-c2nc(C#N)c(N3CCC(C(N)=O)CC3)o2)cc1
 : 1.9	2	14µM*	-1	5%	9.5%[38.3 µM]	-0.2
O=C(O)C1Cc2ccccc2CN1S(=O)(=O)/C=C/c1ccccc1 (stereo not given)
 : -1.4	21	.	15	-7%	-0.4%	-0.6
